Screening data (PubChem)
aSyn 5UTR inh = MLPCN primary screen, SNCA 5' untranslated region. AID 1813. alpha-synuclein 5'UTR reporter, inhibitor activity. inhibition, % (tested at 7.5 µM). 0.82% of 300,000 active; in the data active = inhibition above about 60%;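 note: H4 neuroglioblastoma cells stably carrying SNCA 5'UTR luciferase fusion; 0% = DMSO wells and 100% = positive control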
GSK3B inh = blocks human GSK3beta kinase activity; P49841; GST-GSK3beta kinase, ADP-Glo luminescence, 60 min; active compounds read low; activity score (negative = inhibition), % at 10 µM; 0.038% of 300,000 active; AID 2097;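 active = more than half of replicate wells score below -50%, meaning over 50% inhibition versus plate controls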;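 note: 0% = median DMSO wells and -100% = median GW8510 positive control wells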
Target sequence (P49841 whole entry, looked up): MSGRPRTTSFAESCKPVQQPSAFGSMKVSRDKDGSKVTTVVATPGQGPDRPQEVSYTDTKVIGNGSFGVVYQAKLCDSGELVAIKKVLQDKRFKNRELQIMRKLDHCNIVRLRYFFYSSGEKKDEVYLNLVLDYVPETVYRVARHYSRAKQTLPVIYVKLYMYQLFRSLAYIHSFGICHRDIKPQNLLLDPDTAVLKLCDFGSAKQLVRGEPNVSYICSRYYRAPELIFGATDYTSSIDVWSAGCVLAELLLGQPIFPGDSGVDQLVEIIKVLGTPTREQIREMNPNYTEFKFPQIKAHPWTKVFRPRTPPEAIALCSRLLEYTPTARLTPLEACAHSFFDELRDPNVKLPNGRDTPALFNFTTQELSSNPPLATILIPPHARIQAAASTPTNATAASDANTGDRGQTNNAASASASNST
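Test system: GST-tagged human GSK3beta kinase, cell-free; evaluation: activity score scaled between in-plate DMSO and GW8510 controls; measured by: ADP-Glo luminescence; incubation: 60 min reaction, RT; benchmarks: DMSO and 20 µM GW8510; reagent: peptide substrate plus 25 µM ATP (final); medium: Tris/MgCl2 kinase buffer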
IEC-6 tox = counter-screen for KLF5 inhibitors: cytotoxicity in IEC-6 cells; IEC-6 cytotoxicity, luminescence viability; inhibition, % at 5 µM; 0.78% of 290,000 active; in the data active = inhibition above about 22%;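 note: 0% = plate median of test compound wells and 100% = cytotoxic reference compound wells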
HSF1 inh = HSF1 inhibition; activity change, negative = inhibition, % at 7.5 µM (by protocol); 0.77% of 300,000 active; NIH3T3-HGL HSE-luciferase, MG132-induced, luminescence 8 h; active compounds read low; AID 2098;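 active = more than half of replicate wells show activity change below -50%, luminescence cut by over half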;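 note: luciferase reports HSF-1 transcriptional activity via heat shock element; 0% = median of DMSO wells and -100% = zero luminescence signal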
KLF5 inh = inhibitors of KLF5 expression. DLD-1 KLF5 promoter-luciferase reporter, luminescence. 0.23% of 290,000 active. inhibition, % at 5 µM. AID 1700;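 active = inhibition above a per-plate limit of that plate's mean compound inhibition plus 3 SD, cut at about 60% in these data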;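 note: 0% = DMSO wells and 100% = LY294002 at 200 µM; higher means less KLF5 promoter-driven luciferase light; inactives centre near -14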
HSP90 inh = inhibitors of HSP90 luciferase refolding in rabbit reticulocyte lysate; 0.91% of 290,000 active; inhibition, % at 5.6 µM; luciferase refolding luminescence, 3 h;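 active = inhibition above the screen-wide mean plus 3 SD, computed separately per campaign, cut at about 16% in these data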;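 note: 0% = DMSO wells and 100% = 60 µM geldanamycin wells; inhibitors lower the luminescence because luciferase stays unfolded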
HSF1 activator = increases HSF-1 driven luciferase reporter signal; activation, % at 9 µM; 1.7% of 300,000 active; NIH3T3-HGL HSF-1 luciferase reporter, MG132, 8 h; 100% = twice DMSO control signal;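 active = mean replicate activation of at least 50% with a set share of replicates each reaching 50%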;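 note: 0% = median of the neutral control wells and 100% = twice that signal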
AI-2 QS mod = modulates the Vibrio harveyi AI-2 quorum sensing system; Vibrio harveyi JMH597 AI-2 luminescence/OD600 ratio, 9 h; active compounds read low; strain lacks LuxN and CqsS sensors; 0 = neutral-control median; activity change, % at 7.5 µM; 0.4% of 300,000 active; AID 2094; in the data active = activity change below about -75%, passing the limit was not always enough;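 note: luminescence divided by OD600 gain over 9 h not by final OD600 alone; inactives centre near 13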
GSK3 alpha inh = blocks human GSK-3 alpha kinase. P49840. 0.1% of 320,000 active. ADP-Glo luminescence, 60 min. AID 2650. inhibition, % at 10 µM;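 in the data active = inhibition above about 50%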;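 note: GST-tagged GSK-3 alpha with peptide substrate and 25 µM ATP; 0% = DMSO neutral wells and 100% = GW8510 positive control wells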
Target sequence (P49840 whole entry, looked up): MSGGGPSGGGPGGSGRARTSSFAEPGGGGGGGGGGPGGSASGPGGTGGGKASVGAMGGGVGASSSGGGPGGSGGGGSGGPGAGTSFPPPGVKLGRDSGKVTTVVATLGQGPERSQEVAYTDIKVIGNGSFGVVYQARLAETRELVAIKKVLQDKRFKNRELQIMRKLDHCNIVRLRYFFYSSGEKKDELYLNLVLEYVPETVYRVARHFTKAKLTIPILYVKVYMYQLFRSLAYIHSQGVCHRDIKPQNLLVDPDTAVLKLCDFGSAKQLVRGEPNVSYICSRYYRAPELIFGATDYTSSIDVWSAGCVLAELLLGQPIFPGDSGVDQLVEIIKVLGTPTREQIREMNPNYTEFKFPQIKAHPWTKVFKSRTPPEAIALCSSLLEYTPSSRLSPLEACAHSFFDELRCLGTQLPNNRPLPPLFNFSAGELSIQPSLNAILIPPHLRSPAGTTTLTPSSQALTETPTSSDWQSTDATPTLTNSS
An asterisk follows results filed as active; x = not tested or not shown; & = joins results of further samples.

SMILES	aSyn 5UTR inh	GSK3B inh	IEC-6 tox	HSF1 inh	KLF5 inh	HSP90 inh	HSF1 activator	AI-2 QS mod	GSK3 alpha inh
C[C@H](O)[C@H](O)[C@H]1CNc2nc(N)[nH]c(=O)c2N1	-5	3	x	-3	x	x	1	26	-32
CCOC(=O)CSc1nc(N(C)C)nc(N(C)C#N)n1	0	1	0	-8	4	1	2	9	-2
CC1CN(C2CCN(C(=O)COc3ccccc3)CC2)CC(C)O1 (stereo unspecified)	11	0	-1	-1	-3	1	14	17	1
O=C(Nc1ccc(Cl)cn1)C1CCCN1S(=O)(=O)c1ccccc1 (stereo unspecified)	-9	3	1	0	-8	-2	-4	13	-5
Cc1nc2ccccc2cc1O	13	-1	2	10	-5	-1	-6	16	-1
CCc1ccc(NC(=O)CSC2=C(C#N)C(c3ccco3)C3=C(CCCC3=O)N2)cc1 (stereo unspecified)	0	1	-1	19	-30	0	26	14	2
COC(=O)c1ccc(C2/C(=C(\O)c3cccc(OC)c3)C(=O)C(=O)N2CCCN(C)C)cc1 (stereo unspecified)	1	1	1	-2	-10	2	1	21	-6
Cc1cc(C)n(S(=O)(=O)Cc2ccccc2)n1	-2	0	-3	-9	-7	3	-7	17	0
Cc1ccc(C(=O)NCC(C)(C)O)cc1	14	-2	2	-6	-17	-1	4	-5	-3
COC(=O)CSCC(=O)Nc1cc2c(cc1C(C)=O)OCO2	2	-1	6	-3	-20	4	-15	18	2
CN(C)CCCn1c(NC(=O)C2CCCCC2)nc2ccccc21	21	2	0	9	-10	0	22	6	0
C/C(CCC(=O)OC[C@H]1O[C@H](C#Cc2ccccc2)C=C[C@@H]1Oc1ccc(C)cc1)=N\OC[C@@H](O)[C@H]1O[C@@H]2OC(C)(C)O[C@@H]2[C@H]1O	-33	0	-2	53	-6	0	62*	28	-3
CCOC(=O)c1[nH]c2ccc(C)cc2c1N=CN(CC)CC	-33	4	4	-3	-19	-1	-5	15	-1
CCOC(=O)C1CCN(c2nc3ccccc3nc2C(C#N)C(=O)OC(C)COC)CC1 (stereo unspecified)	32	1	-5	2	3	0	-6	16	-2
CC(=O)/C=C(\C)NCCNc1c(F)c(F)c(CO)c(F)c1F	-8	-2	-2	8	-11	-1	-3	12	-1
CC(O)CNc1nc2c(c(=O)n(C)c(=O)n2C)n1Cc1cccc(C(F)(F)F)c1 (stereo unspecified)	-2	2	5	0	-12	1	4	17	1
CC(=O)NC(=O)Nc1sc(=S)n(C)c1C	-3	0	2	-2	-18	5	2	21	-1
c1ccc2c(c1)[nH]c1c(N3CCC4(CC3)OCCO4)ncnc12	-5	1	6	-6	-16	1	2	6	11
CN1CCN(CCC(=O)N2c3ccccc3Sc3ccc(Cl)cc32)CC1	2	3	6	0	-6	2	16	44	-2
CC(=O)C1=C(O)C(=O)N(c2ccc(S(N)(=O)=O)cc2)C1c1ccccc1F (stereo unspecified)	13	-2	2	1	-19	1	-15	17	7
COc1ccc2c3c1OC1CC(O)C=CC31CCN(C)C2 (stereo unspecified)	-7&17	3&-21	2&-1	-1&-7	-7&10	-5&2	12&-9	13&7	1&-1
C[C@@H]1C(=O)O[C@H]2C[C@@]34[C@H]5C[C@@H](C(C)(C)C)[C@]36[C@@H](OC(=O)[C@@H]6O)O[C@@]4(C(=O)O5)[C@]21O	11	-1	6	-6	-11	13	9	4	1
CCC1CCCCN1c1nc(-c2ccncc2)nc2ccccc12 (stereo unspecified)	27	0	-2	-5	-37	0	-5	3	-1
CN/C(=C/[N+](=O)[O-])NCCSCc1csc(CN(C)C)n1	x	x	x	x	x	x	x	x	-2
Cc1cc2c(c(=O)n1Cc1ccccn1)C(c1ccc3c(c1)OCO3)C(C#N)=C(N)O2 (stereo unspecified)	-1	0	-4	-12	1	0	-25	7	-1
CCn1cc(C(=O)NCCc2ccccc2)c(=O)c2cc(F)c(N3CCN(C)CC3)cc21	-26	-11	-2	-3	-27	-3	-9	2	-1
O=C(NCc1ccccc1)c1ccc(=O)[nH]n1	-22	1	-6	-7	-30	1	-7	39	-2
CC1(C)Cc2[nH]c(=S)c(C#N)cc2CO1	-8	3	-3	2	-16	-2	-14	14	3
C=CC[C@@H]1C=C[C@H](O/N=C/[C@@H](NS(=O)(=O)c2ccc(C)cc2)[C@H](C)/C=C/CC(=O)OC)[C@@H](CO)O1	13	-2	5	0	-11	-3	6	7	-1
CCS(=O)(=O)CCn1c([N+](=O)[O-])cnc1C	-18	2	3	10	-3	0	0	8	-2
Clc1ccc(COc2ccccn2)c(Cl)c1	15	1	-1	-6	-23	0	-4	11	-1
Cn1c(=O)c2c3c(sc2n2c(SCC(N)=O)nnc12)CC(C(C)(C)C)CC3 (stereo unspecified)	-42	0	3	0	9	3	-10	3	5
CC(C)CCOc1ccc(Cl)cc1CN1CCOCC1	-16	-1	-1	7	-29	4	-12	25	0
CCOC(=O)C(OC(=O)c1sc(=S)n(C)c1C)C(C)=O (stereo unspecified)	31	2	-2	-10	-17	-2	1	40	-3
Cc1ccc(/C(O)=C2/C(=O)C(=O)N(Cc3ccco3)C2c2cccs2)cc1 (stereo unspecified)	-21	4	1	3	-39	0	17	21	4
COc1cc(/C=N/n2c(C)nnc2C)cc(OC)c1OC	-1	2	0	0	-13	-1	10	17	-2
NCc1ccc(S(N)(=O)=O)cc1	12	-1	4	-3	-16	1	-7	20	-3
COCCCNc1nc2c(c(=O)n(C)c(=O)n2C)n1Cc1cccc(OC)c1	10	1	-1	-3	-37	6	18	11	-2
COc1ccc(C2CC(C(F)(F)F)n3ncc(C(=O)NCC4CCCO4)c3N2)cc1OC (stereo unspecified)	38	1	0	-5	-5	0	-11	9	1
O=C1OC(Nc2ccc(Br)cc2F)c2ccccc21 (stereo unspecified)	-27	1	4	2	16	2	-1	52	-4
Cc1ccc(-c2nnc(-c3cccc(Br)c3)o2)cc1	-159	2	-1	30	-67	3	64*	9	-2
Fc1ccc2[nH]c3c(N4CCN(C5CCCCC5)CC4)ncnc3c2c1	8	2	6	-2	-23	-1	10	35	1
Cc1nn2c(-c3ccc(Cl)cc3)nnc2s1	0	0	0	-2	3	-1	3	11	2
COc1ccc2c(OC)c3ccoc3nc2c1OC	9	-1	4	6	-24	4	-7	11	-3
CCOC(=O)C1=Nc2ccccc2C1=[N+]=[N-]	21	-1	-2	2	-15	1	9	-39	0
COc1ccc(C2C(C#N)=C(SC)NC3=C2C(=O)CC(C)(C)C3)cc1 (stereo unspecified)	-1	3	1	2	14	-3	9	9	10
O=C(O)C(Cc1ccccc1)N1C(=O)c2ccccc2C1=O (stereo unspecified)	25	1	-2	-1	-61	0	17	29	0
COc1cc(=O)[nH]c(=O)n1CC(=O)c1ccccc1	24	3	-1	0	-11	0	-4	18	-2
C/C(=N\O)C(=O)NCCCn1ccnc1	-2	-2	-2	-4	-9	-5	-6	5	-2
CCOC(=O)c1cc(C)n(Cc2cccc(OC)c2OC)c1C	6	3	-7	0	-26	-1	29	1	1
CCOC(=O)c1ccc(OC(=O)CCCCCN=C(N)N)cc1	-9	-3	x	0	x	x	-4	25	1
Cn1nnc2c(sc3nc(N4CCOCC4)c4c(c32)CCCC4)c1=O	9	-2	5	-2	9	1	1	16	-2
CC1(C(=O)CSc2nc3ccccc3[nH]2)CCC(=O)O1 (stereo unspecified)	-8	-3	8	-6	4	4	7	1	-2
Fc1ccc2[nH]c3c(N4CCSCC4)ncnc3c2c1	16	0	8	-11	16	4	-6	18	x
O=C(O)c1ccccc1-c1ccccc1C(=O)Nc1ccc2c(c1)[nH]c(=O)c1ccccc12	1	-1	2	-3	-43	-2	6	9	-1
Nc1ccc(Cl)cc1/C(=N/O)c1ccccc1	8	2	1	-7	-32	0	6	8	-2
CCOC(=O)c1oc2cc(O)cc(C)c2c(=O)c1-c1cscn1	3	3	7	1	-23	1	-2	11	0
Nc1ccc2c(c1)N1CCN=C1S2	2	-1	1	-16	0	1	5	1	5
CCSc1nnc(N(CCC#N)CCC#N)s1	-3	2	0	-2	10	5	20	26	0
O=C(COc1ccc(Cl)cc1)Nc1ccccc1CO	-81	0	2	1	5	2	3	11	-3
The list continues.
SMILES	aSyn 5UTR inh	GSK3B inh	IEC-6 tox	HSF1 inh	KLF5 inh	HSP90 inh	HSF1 activator	AI-2 QS mod	GSK3 alpha inh
COc1ccc(-n2ccc(=O)c3c2CCCC3=O)cc1	14	3	-3	-8	-2	0	-10	8	0
CC1=C(CC(=O)O)c2cc(F)ccc2/C1=C\c1ccc(S(C)=O)cc1 (stereo unspecified)	6	4	x	1	x	x	-6	6	-2
CCOC(=O)CC(=O)CSc1[nH]c(=O)cc(C)c1C#N	15	-1	-5	2	-13	8	1	6	1
N#CC1=C(N)OC2=C(C(=O)CCC2)C1CCc1ccccc1 (stereo unspecified)	-8	-2	1	10	-18	-1	21	12	-30
c1ccc(-c2ccccn2)nc1	-5	2	-7	1	-3	6	-11	12	-2
CN1C(C(=O)Nc2ccccn2)=C(O)c2ccccc2S1(=O)=O	-32&-34	-3&0	6&0	5&-4	9&-9	-2&7	0&-11	20&24	-1
CC(C)(Sc1cc(C(C)(C)C)c(O)c(C(C)(C)C)c1)Sc1cc(C(C)(C)C)c(O)c(C(C)(C)C)c1	17	1	1	-12	-17	2	-32	7	-2
Cc1ccc(NC(=O)CSc2nnc(-c3ccco3)c(-c3ccco3)n2)cc1	22	0	-20	14	-6	0	22	18	1
CCCCOc1ccc(C(=O)NCC(=O)NCC(=O)OCC)cc1	4	-4	3	-12	-20	1	-9	18	0
CN(C)CCCN1C(=O)C(O)=C(C(=O)c2cc3ccccc3o2)C1c1ccccc1 (stereo unspecified)	0	0	4	3	-7	0	5	0	-2
C=CCOC(=O)C1=C(C)NC(SCC(=O)Nc2ccc(C)c(Cl)c2)=C(C#N)C1c1ccco1 (stereo unspecified)	3	-2	-2	22	-22	1	39	23	-1
CC(C)CC(=O)Nc1ccccc1N1CCCC1	1	-1	9	-1	8	5	-11	15	0
O=C(CC1C=Cc2ccccc2N1C(=O)c1ccccc1)c1ccccc1 (stereo unspecified)	14	-5	-1	24	-17	1	71*	3	-3
CCc1oc2ccccc2c1C(=O)c1cc(Br)c(O)c(Br)c1	23	7	2&6	-2	-6&-5	-2&4	-20	29&17	-13

The list is partial; the hit share may differ from the screen's.
